Source: PubChem BioAssay
GIRK2 act: opens human GIRK2 potassium channels. AID 1259325. 63,000 tested, 0.05% active. calls only for hits at 25 µM. HEK293-GIRK2 thallium flux, Thallos fluorescence;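 active means among the strongest 0.2% of first-round signals and kept after retests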;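 further: first round at about 10 µM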
Target sequence (P48051 whole entry, looked up): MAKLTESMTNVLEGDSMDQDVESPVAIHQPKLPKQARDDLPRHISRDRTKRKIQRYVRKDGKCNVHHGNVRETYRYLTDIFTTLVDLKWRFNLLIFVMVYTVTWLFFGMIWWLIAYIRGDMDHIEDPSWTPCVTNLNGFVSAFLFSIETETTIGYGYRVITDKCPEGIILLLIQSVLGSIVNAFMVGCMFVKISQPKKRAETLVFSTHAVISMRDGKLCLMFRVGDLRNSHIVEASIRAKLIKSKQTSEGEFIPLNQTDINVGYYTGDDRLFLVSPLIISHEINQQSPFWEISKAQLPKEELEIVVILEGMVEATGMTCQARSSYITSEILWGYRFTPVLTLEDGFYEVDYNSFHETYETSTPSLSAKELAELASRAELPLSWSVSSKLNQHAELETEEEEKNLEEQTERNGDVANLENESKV
Calls only; i = inactive.

Start of the data: the first 18 entries as a preview:
SMILES | GIRK2 act
COC(=O)c1cccc(Nc2nn3c(=O)c4cc(C)ccc4nc3s2)c1 | i
O=C(c1cc(-c2ccco2)on1)N1CCC(Oc2ccc(Cl)cn2)CC1 | i
COc1cc(OC)cc(C(=O)N2CCC(c3nnc(C4CC4)o3)CC2)c1 | i
COC(=O)c1cn(Cc2cc(C)ccc2C)nc1S(=O)(=O)N1CCCC(C)C1 (centres undefined) | i
COc1ccc(N/C=C(\C#N)c2nc(-c3cccs3)cs2)cc1OC | i
Cn1c(=O)c2c(nc3n(CCO)c(C(C)(C)C)cn23)n(C)c1=O | i
O=C(CSc1nnc(Cn2ccc(=O)[nH]c2=O)o1)Nc1nccs1 | i
Cc1cc(=O)n2c(-c3cccc(NC(=O)C(C)C)c3)csc2n1 | i
COc1ccc(-c2cc3c(=O)n(CC(=O)N4CCCc5ccccc54)ccn3n2)cc1OC | i
Nc1ccc(S(=O)(=O)N2CCCC2)cc1 | i
CC(C(=O)NCc1ccc(C(F)(F)F)cc1)c1cccc(C(=O)c2ccccc2)c1 (centres undefined) | i
CCOC(=O)c1oc2ccccc2c1NC(=O)c1cccc(C(=O)Nc2c(C(=O)OCC)oc3ccccc23)n1 | i
CSc1ccccc1C(=O)OC1CN(c2nc3ccc(F)cc3s2)C1 | i
CC(C)CCn1nc2c(S(=O)(=O)N3CCCCC3)cccn2c1=O | i
COc1ccc(-c2c(C)oc3cc(OS(=O)(=O)c4ccc(C)cc4)ccc3c2=O)cc1 | i
CCCn1c(C(=O)NCC(=O)c2ccccc2)cc2c(=O)n(C)c(=O)n(C)c21 | i
CCCCNC(=O)C(=O)NCCC1CCCCN1S(=O)(=O)c1c(C)cc(C)cc1C (centres undefined) | i
COC(=O)c1sccc1S(=O)(=O)N1CCN(c2cc(Cl)ccc2C)CC1 | i

The listing (from the top)
SMILES | GIRK2 act
COC(=O)c1cccc(Nc2nn3c(=O)c4cc(C)ccc4nc3s2)c1 | i
O=C(c1cc(-c2ccco2)on1)N1CCC(Oc2ccc(Cl)cn2)CC1 | i
COc1cc(OC)cc(C(=O)N2CCC(c3nnc(C4CC4)o3)CC2)c1 | i
COC(=O)c1cn(Cc2cc(C)ccc2C)nc1S(=O)(=O)N1CCCC(C)C1 (centres undefined) | i
COc1ccc(N/C=C(\C#N)c2nc(-c3cccs3)cs2)cc1OC | i
Cn1c(=O)c2c(nc3n(CCO)c(C(C)(C)C)cn23)n(C)c1=O | i
O=C(CSc1nnc(Cn2ccc(=O)[nH]c2=O)o1)Nc1nccs1 | i
Cc1cc(=O)n2c(-c3cccc(NC(=O)C(C)C)c3)csc2n1 | i
COc1ccc(-c2cc3c(=O)n(CC(=O)N4CCCc5ccccc54)ccn3n2)cc1OC | i
Nc1ccc(S(=O)(=O)N2CCCC2)cc1 | i
CC(C(=O)NCc1ccc(C(F)(F)F)cc1)c1cccc(C(=O)c2ccccc2)c1 (centres undefined) | i
CCOC(=O)c1oc2ccccc2c1NC(=O)c1cccc(C(=O)Nc2c(C(=O)OCC)oc3ccccc23)n1 | i
CSc1ccccc1C(=O)OC1CN(c2nc3ccc(F)cc3s2)C1 | i
CC(C)CCn1nc2c(S(=O)(=O)N3CCCCC3)cccn2c1=O | i
COc1ccc(-c2c(C)oc3cc(OS(=O)(=O)c4ccc(C)cc4)ccc3c2=O)cc1 | i
CCCn1c(C(=O)NCC(=O)c2ccccc2)cc2c(=O)n(C)c(=O)n(C)c21 | i
CCCCNC(=O)C(=O)NCCC1CCCCN1S(=O)(=O)c1c(C)cc(C)cc1C (centres undefined) | i
COC(=O)c1sccc1S(=O)(=O)N1CCN(c2cc(Cl)ccc2C)CC1 | i
O=S(=O)(C1CC1)N1CC(Oc2nc3c(Cl)cccc3s2)C1 | i
CC(=O)Nc1ccc(S(=O)(=O)N2CCN(c3cc(-c4ccccc4)ncn3)CC2)cc1 | i

A stretch from further up, as a working copy:
SMILES | GIRK2 act
O=S(=O)(C1CC1)N1CC(Oc2nc3c(Cl)cccc3s2)C1 | i
CC(=O)Nc1ccc(S(=O)(=O)N2CCN(c3cc(-c4ccccc4)ncn3)CC2)cc1 | i

Additional structures:
SMILES | GIRK2 act
N#CCN1CCC(c2nnc(C(F)(F)F)o2)CC1 | i
CCOc1ccc(C(=O)NCCCS(=O)(=O)N2CCN(c3cccc(C)c3)CC2)cc1 | i
NC1CCN(c2cccc(Cl)n2)CC1 | i
O=C(COc1ccc(Cl)cc1Cl)NCCCS(=O)(=O)N1CCN(c2ccccn2)CC1 | i
Cc1cc(C(=O)N2CCC3(CC2)OCCN3S(=O)(=O)c2ccccc2)no1 | i
Cc1nn(C)cc1/C=N\N=C1\CCC2C3CCc4cc(O)ccc4C3CCC12C (centres undefined) | i
Cc1cc2c3ccccc3n3c2c2c1O[C@]1(C)CC[C@@H]([C@@H]2C1)C3(C)C | i
COc1cc(C)c(S(=O)(=O)NCCNc2ccc(-n3cccc3)nn2)cc1C | i
O=C(CSc1nc2ncccc2c(=O)n1CC1CCCO1)Nc1cccc(C(F)(F)F)c1 (centres undefined) | i
COc1ccc(C(C)NC(=O)c2nnn(-c3ccc(C)c(C)c3)c2-c2ccncc2)cc1OC (centres undefined) | i
COc1ccc(CCn2c(NC3CCCCC3)nc3c2c(=O)[nH]c(=O)n3C)cc1 | i
COc1ccc(CNC(=O)Nc2ccccc2NC(=O)c2ccccc2F)cc1 | i
Cc1ccc(C)c2sc(NC(=O)C3CCN(S(=O)(=O)c4ccc(F)cc4)CC3)nc12 | i
COc1ccccc1OCC#CCNC(=O)c1cc2ccccc2o1 | i
CC(=O)Nc1ccc(SCCCC(=O)N2CCN(c3cccc(Cl)c3)CC2)nn1 | i
CCN(C(=O)C12CCC(C)(C(=O)C1)C2(C)C)c1ccccc1 (centres undefined) | i
Cc1c(Cl)cccc1NC(=O)CN1N=NC2C(=O)N(c3ccc(F)c(F)c3)C(=O)C21 (centres undefined) | i
Cc1nc(C)c(-c2nnc(NC(=O)CCS(=O)(=O)c3ccccc3)o2)s1 | i
Cc1nnsc1C(=O)N1CCC(CSC2=NCCS2)CC1 | i
CCc1nc2sc(C(c3ccc(Br)cc3)N3CCCC3)c(O)n2n1 (centres undefined) | i
CCOCC(=O)N1CCCC1c1nc(C)no1 (centres undefined) | i
C=C[C@H]1C(O[C@@H]2O[C@H](CO)[C@@H](O)[C@H](O)[C@H]2O)OC=C2C(=O)N3CCc4c([nH]c5ccccc45)C3CC21 (some centres undefined) | i
O=C(c1cccc(Br)c1)N(CCc1cccs1)Cc1ccco1 | i
CCCCC[C@H](O)/C=C/[C@@H]1[C@H](CCCCCCC(=O)O)[C@@H](O)C[C@H]1O | i
CS(=O)(=O)N1CCN(C(=O)/C=C/c2ccco2)CC1 | i
CCC(CO)Nc1ncc([N+](=O)[O-])c(N)n1 (centres undefined) | i
O=C(CCSc1ccccc1)NCCCn1ncccc1=O | i
Cc1csc(C(=O)NCCn2nc(C(F)(F)F)n(C)c2=O)c1 | i
CCOC(=O)Cc1csc(NC(=O)c2nnn(-c3ccc(OC)cc3)n2)n1 | i
O=C(NCCCS(=O)(=O)N1CCN(c2ncccn2)CC1)c1cc2ccccc2o1 | i
COc1ccc(C)cc1S(=O)(=O)N1CCN(S(=O)(=O)c2cc(C)ccc2OC)C(C)C1 (centres undefined) | i
C/C=C/Cn1c(=O)c2c(nc3n(-c4cccc(OC)c4)c(C)cn23)n(C)c1=O | i
Cc1nc(SCC#N)c2c3c(sc2n1)CCC3 | i
N=C1SCC(=O)N1c1ncc(Cc2cccc(Cl)c2)s1 | i
Cc1ccc(-c2c(C)sc3ncnc(Cl)c23)cc1 | i
CCOc1ccc(-c2cc3c(=O)n(CC(=O)NCc4ccccc4)ccn3n2)cc1 | i
COC(=O)Cn1c(=O)c2c(nc3n(-c4ccc(OC)cc4)c(-c4ccccc4)cn23)n(C)c1=O | i
COc1ccc(N2CC(C)Cn3c2nc2c3c(=O)n(CCCc3ccccc3)c(=O)n2C)c(OC)c1 (centres undefined) | i
COc1ccc(OC)c(-n2nnc(-c3nc(-c4ccc(Br)cc4)no3)c2N)c1 | i
C/C=C(/C)C(=O)O[C@H]1CC(C)(C)CC2[C@@]13[C@H](O)C[C@]1(C)[C@@]2(CCC2[C@@]4(C)CC[C@H](O[C@@H]5O[C@H](C(=O)O)[C@@H](O)[C@H](O[C@@H]6O[C@H](CO)[C@H](O)[C@H](O)[C@H]6O[C@@H]6O[C@@H](C)[C@H](O)[C@@H](O)[C@H]6O[C@@H]6OC[C@](O)(CO)[C@H]6O)[C@H]5O[C@@H]5O[C@H](CO)[C@H](O)[C@H](O)[C@H]5O)C(C)(C)C4CC[C@]21C)O[C@H]3O (some centres undefined) | i
CCc1cc(C(N)=S)ccn1 | i
Cn1nc(C(=O)Nc2nc3ccc([N+](=O)[O-])cc3s2)ccc1=O | i
Cc1cccc(C)c1NS(=O)(=O)c1ccc(NC(=O)/C=C/C(=O)O)cc1 | i
CCCN(CCC)CC(O)COc1ccccc1C(C)=O (centres undefined) | i
O=C(c1cccs1)c1ccc(CNS(=O)(=O)c2ccccc2F)s1 | i
Nc1nc(-c2ccc(F)cc2)c(-c2ccc3ncccc3n2)s1 | i
N#Cc1cccc(C(=O)N2CCCC(c3nnc(C(F)(F)F)o3)C2)c1 (centres undefined) | i
Cc1cc(NC(=O)c2ccc(Br)s2)n(-c2nc3ccccc3s2)n1 | i
O=C(CN1CCC(Cn2c(COc3ccccc3)nc3ccccc32)CC1)Nc1nccs1 | i
COc1ccc(OC)c2sc(N(CCCn3ccnc3)C(=O)c3ccc(F)cc3)nc12 | i
O=C(NNC(=O)c1cccn(Cc2cccc(F)c2)c1=O)Nc1cccc(Cl)c1 | i
CCCNC(=O)C1CCCN(c2nc3ncn(CC(=O)Nc4ccc(OC)cc4)c(=O)c3s2)C1 (centres undefined) | i
CCOC(=O)CSc1nc2c(c(=O)n(C)c(=O)n2C)n1CC(O)COc1ccccc1C (centres undefined) | i
COc1ccccc1OCC(=O)Nc1cc(N2CCCCC2)ncn1 | i
COc1ccc(Cl)cc1C(=O)NCC(O)c1ccoc1 (centres undefined) | i
Cc1cc(C(=O)NC2CCCC(OC(=O)Nc3ccccc3)C2)no1 (centres undefined) | i
CCCCC[C@H](O)/C=C/[C@H]1C=CC(=O)[C@@H]1CCCCCCC(=O)OCC | i
CCOc1ccc(-c2ccc(=O)n(C(C)C(=O)N3CCCC3)n2)cc1 (centres undefined) | i
Cc1[nH]c(=O)[nH]c(=O)c1CC(=O)Nc1nc2ccc(Cl)cc2s1 | i
Cc1nn(C)cc1S(=O)(=O)NCCCN1CCOCC1 | i
Following part:
SMILES | GIRK2 act
O=C(NCc1cnn2ccccc12)c1ccc(=O)[nH]c1 | i
Cc1c(C(=O)NN)sc2nc3n(c(=N)c12)CCC3 | i
O=C(NCCN1CCC(c2cccs2)CC1)Nc1ccccc1Cl | i
CC(C)c1cccc(NC(=O)Cn2cnc3nc(N4CCOCC4)ncc3c2=O)c1 | i
COc1ccc(N2C(=O)CC(NNC(=O)c3ccccc3)C2=O)cc1 (centres undefined) | i
Cc1nc2sccn2c1-c1nnc(SCC(=O)NC2CCCCC2)n1C | i
CCC(C)(C)C(=O)O[C@H]1C[C@@H](C)C=C2C=C[C@H](C)[C@H](CC[C@@H]3C[C@@H](O)CC(=O)O3)[C@H]21 | i
O=C(c1ccco1)N1CCN(c2nc(N3CCOCC3)nc(-n3ccnc3)n2)CC1 | i
Cc1nc(NCCNC(=O)C2CC2)cc(-n2cccc2)n1 | i
COc1cccc(CN2COc3ccc4c(c3C2)O/C(=C\c2cc(OC)c(OC)c(OC)c2)C4=O)c1 | i
COc1ccc(S(=O)(=O)N(C)c2ccsc2C(=O)NCc2cccs2)cc1 | i
Cn1cccc1C(CNC(=O)c1ccco1)N1CCc2ccccc2C1 (centres undefined) | i
Cc1cccc(CC(=O)NCC2CCN(c3ccccn3)CC2)c1 | i
CN(CCO)CC1COCCN1C(=O)c1cccs1 (centres undefined) | i
Clc1ccccc1CN1CC(c2nc(C3CC3)no2)C1 | i
O=C(NCCn1ncc2c(N3CCN(c4ccccc4)CC3)ncnc21)C1CC1 | i
O=C(Nc1cc(C2CC2)nn1-c1nc(-c2ccccc2)cc(=O)[nH]1)c1cccs1 | i
COc1ccc2c(c1)c(=O)c(S(=O)(=O)c1ccc(C)cc1)cn2Cc1cccc(F)c1 | i
O=C(CCc1nc2sc3c(c2c(=O)[nH]1)CCC(c1ccccc1)C3)NCCc1ccc(Cl)cc1 (centres undefined) | i
COc1ccc(C)cc1Nc1nc(C(=O)Nc2nnc(C)s2)cs1 | i
O=C(NCc1ccccc1)C1CCN(c2ncnc3c2sc2ncccc23)CC1 | i
O=C(Nc1nc2c(s1)CN(C(=O)/C=C/c1cccs1)CC2)C1CCCO1 (centres undefined) | i
COc1ccc(-c2nnc(CC(=O)Nc3cc(Cl)c(OC)cc3OC)o2)cc1 | i
Cc1ccc(C)c(C(=O)NCC2CCN(C(=O)c3ccoc3)CC2)c1 | i
O=C(Cn1nc(C2CC2)cc1C(=O)N1CCCC1)Nc1ccccc1Cl | i
Cc1noc(-c2ccc(N3CCCC(C(=O)Nc4cccc(F)c4C)C3)nc2)n1 (centres undefined) | i
CCc1cc(=O)n(CC(=O)Nc2ccccc2CC)c(N)n1 | i
Cc1cc(C)n(CC(=O)NCc2ccccc2)c(=O)c1-c1nc(-c2cccc(Cl)c2)no1 | i
CCn1c(SCCN2CCOCC2)nc2c1c(=O)[nH]c(=O)n2C | i
CCn1cc(NC(=O)N2c3ccccc3CC2C)c2ccccc21 (centres undefined) | i
Cc1ccc(S(=O)(=O)NCC2(c3ccc(F)cc3)CC2)c(C)c1 | i
O=C(C1CCCC1)N(Cc1ccoc1)Cc1cccs1 | i
Cc1cc(C)c(S(=O)(=O)Nc2cnc(N(C)C)nc2)c(C)c1 | i
CCOc1ccc(NC(=O)Cn2nc3cc(-c4ccc(OC)cc4)nc(C)n3c2=O)cc1 | i
CC(C)NC(=O)N1CCC(Oc2nc3ccc(F)cc3s2)CC1 | i
O=C(Cn1cnnn1)Nc1cc(N2CCCC2)ncn1 | i
COc1cc(/C=C/C(=O)NCC2CCN(Cc3cc(C)oc3C)CC2)cc(OC)c1OC | i
Cc1nccn1CCNC(=O)C(=O)NCC(F)(F)F | i
CC(C)(C)n1ncc2c(=O)n(CC(=O)N3CCCc4ccccc43)cnc21 | i
COc1ccc(CNC(=O)Cn2c(=O)nc(-c3ccccc3)c3ccccc32)cc1 | i
O=c1[nH]c2nc(N3CCN(c4cccc(Cl)c4)CC3)ncc2c(=O)n1C1CCCC1 | i
CC(/C=C/C1=CC2=CC(=O)C(C)(O)C(O)C2=CO1)=C\C(C)CCO (centres undefined) | i

An excerpt; the hit share may differ from the screen's.
